# Source: PubChem BioAssay (several laboratories)
# Mtb hypoxia rep: reduces hypoxia-regulated biosensor signal in M. tuberculosis | fluorescence inhibition, % (no concentration beside the values) | hit rate 0.1% among 300,000 | AID 1159583 | M. tuberculosis hypoxia-regulated fluorescent reporter, fluorescence;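 active = 35 to 45% if threefold the growth effect, above 45% if 1.5-fold the growth effect; inactive = the rest, general growth blockers included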;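 note: wells of about 50 µL received 100 nL stock; 0% = vehicle wells and 100% = reference inhibitor wells; whole bacteria with a GFP reporter of the hypoxia response; strong numbers were not always called active; many hits fall short of the cut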
# Bead autofluor: counter-screen for toxin protease inhibitors: compound fluorescence; hit rate 3.1% among 360,000; compound autofluorescence counterscreen, microsphere flow cytometry; hits give high values; fluorescence intensity (no concentration beside the values);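 active = at least 3 SD above the mean of all compounds, about 16000 in these data; inconclusive = too few beads counted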;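 note: 100 nL of 1 mM stock went into each well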
# Sa ugtP lethal: growth inhibition of S. aureus ugtP deletion strain. growth inhibition, % (test concentration not listed). S. aureus RN4220 ugtP deletion, OD600 growth, 16 h; some inactives read as strong as hits. hit rate 0.54% among 330,000;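 active = z-score under -3 and OD600 up to 0.15 on both plates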;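 note: plate controls were untreated wells for no effect and antibiotic for full effect; wells of about 80 µL received 100 nL stock; the first replicate is given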
# PrP 5UTR inh: inhibition of PrP 5' UTR reporter expression; cell-based PrP 5' UTR mRNA reporter, plate reader; inhibition, % (test concentration not listed); hit rate 0.35% among 340,000; AID 488862;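 active = every replicate at 50% or more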;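 note: 0 = median of the neutral control wells; tested in H4 reporter cells; numbers are from one replicate; inactives centre near -14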
# BJeLR viability: BJeLR cell viability loss. BJeLR (HRASV12) viability, CellTiter-Glo ATP luminescence, 48 h; reference of the scale not given here. inhibition, % (concentration not given with the values). hit rate 0.17% among 300,000. AID 1554;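 active = replicate mean above 50%; inconclusive = above 50% but judged a plate artefact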;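 note: 50 nL library stock added to about 25 µL; numbers are from one replicate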
# RN4220 kill: S. aureus RN4220 growth inhibition; OD600, 16 h; inhibition, % (concentration not given with the values); hit rate 0.33% among 330,000; AID 1259311;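 active = z-score of -3 or lower and OD600 up to 0.18 on both plates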;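 note: plate controls were untreated cells for no effect and reference antibiotic for full effect; stock transfer was 100 nL into about 80 µL; one replicate is shown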
# Mtb hypoxia rep growth: second read-out of Mtb hypoxia rep, no call of its own (marks repeat the call); growth inhibition, %; measured here: M. tuberculosis growth (absorbance);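 0% = vehicle and 100% = reference antibiotic; read after six days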
# Numbers without * were called inactive; ? = inconclusive; . = not tested or not shown.
SMILES,Mtb hypoxia rep,Mtb hypoxia rep growth,Bead autofluor,Sa ugtP lethal,PrP 5UTR inh,BJeLR viability,RN4220 kill
NC(=O)c1ccc(NS(=O)(=O)c2ccccc2F)cc1,-5.2,1.4,11154,-0.6,-15.6,1.9,0.8
Cc1ccc([C@H]2C(C(=O)O)=CC[C@@H](c3cccc(C)c3)N2S(=O)(=O)c2ccc(C)cc2)cc1,6.7,6.1,4070,6.5,-21.2,.,16.4
COc1cc(/C=C/c2nc(N)nc(-c3ccccc3O)n2)cc(OC)c1OC,5.9,8.3,2573,6.9,-3.7,14.6,-0.2
CCOC(=O)c1c(C)n(C)c2ccc(O)c(CN3CCN(C)CC3)c12,2.5,2.7,9359,6.0,-5.8,-6.3,1.4
COC(=O)c1ccc(NC(=O)c2snnc2-c2ccccc2)cc1,4.6,-2.0,4198,2.5,-1.2,-1.7,6.2
CC1CCCCN1C(=O)CSc1nnc(-c2cccnc2)n1C1CCCCC1 (configuration not stated),-2.3,-3.0,7942,9.3,-12.6,2.5,4.0
CS(=O)(=O)N1CCN(C(=O)c2cc(-c3cccnc3)nc3ccc(Br)cc23)CC1,1.2,2.0,3291,2.4,-16.8,-4.0,-0.9
CC1Cc2ccccc2N1CC(=O)Nc1cccc(S(N)(=O)=O)c1 (configuration not stated),8.7,4.6,3316,16.4,-6.7,-3.2,2.0
Cn1nccc1C(=O)N1CCc2c([nH]c3ccccc23)C1c1ccc(F)cc1 (configuration not stated),2.2,4.6,3498,-3.1,-23.2,-1.3,-4.8
C/C(=N/OC(=O)c1cccc(C(F)(F)F)c1)c1cnccn1,.,.,5722,.,-22.7,-3.7,.
COc1nccnc1NS(=O)(=O)c1ccc(NC(=S)NC(=O)/C=C/c2ccccc2)cc1,-0.4,4.2,2056,4.1,-13.5,10.6,-0.2
O=C(Cc1c(F)cccc1Cl)NCc1cccnc1,4.7,9.4,3962,12.7,-10.8,-3.0,-2.4
O=[N+]([O-])c1ccc(OCC(O)CN(CCO)CCO)cc1 (configuration not stated),7.1,13.2,2483,5.2,-22.6,-6.6,0.8
COc1cc(C(=O)Nc2ccc(S(=O)(=O)N(C)c3ccccc3)cc2)cc(OC)c1OC,-0.3,-0.3,2233,-15.2,-16.6,-8.7,2.8
O=c1sc(/C=N/Nc2ccccc2)c(Cl)n1Cc1ccccc1,.,.,2415,.,-56.0,7.2,.
Cc1ccc2cccc(OCCCOc3ccccc3CO)c2n1,5.5,-1.0,4052,-0.5,-1.6,1.7,3.0
Cc1ccc2oc(=O)c3cc(C(=O)N4CCN(C)CC4)sc3c2c1,6.6,15.9,4197,4.8,1.4,2.5,3.5
Cc1nc2ncnn2c(N2CCC(C(=O)NC3CCCC3)CC2)c1Cc1ccccc1,11.5,6.8,11151,0.9,-14.8,-4.9,0.5
COc1ccc(OCC(=O)OCC(=O)NC2CCCC2)cc1,2.0,3.4,3377,5.3,-10.6,.,6.0
Cc1cccc(N2CCN(C(C)C(=O)N3CCc4ccccc43)CC2)c1C (configuration not stated),5.1,-2.3,3383,2.5,-16.2,-4.8,-0.2
Cn1nc(C(=O)N2CCOCC2)c2ccccc2c1=O,1.9,2.3,3647,2.1,-35.5,-0.7,1.3
CCOC(=O)CSc1nnc(Cn2nnc(-c3ccccc3)n2)n1CC,5.6,-1.4,2433,9.6,-0.6,-3.1,0.5
COc1ccccc1OCC(=O)Nc1nnc(C2CCCC2)s1,5.4,3.4,5296,-8.5,-31.9,-11.4,-1.1
CCOC(=O)c1ccccc1OCc1cc(C=NNC(=O)c2ccncc2)ccc1OC,.,.,.,3.8,.,.,1.3
CCCS(=O)(=O)c1nc(S(=O)(=O)c2ccc(C)cc2)c(N2CC(C)OC(C)C2)s1 (configuration not stated),-3.8,9.9,2641,4.6,-1.7,-0.5,1.0

# Single entries from the list.
# Entry of CC1CCCCN1C(=O)CSc1nnc(-c2cccnc2)n1C1CCCCC1 (configuration not stated) in Mtb hypoxia rep: -2.3
# Entry of C/C(=N/OC(=O)c1cccc(C(F)(F)F)c1)c1cnccn1 in BJeLR viability: -3.7
# Entry of Cc1nc2ncnn2c(N2CCC(C(=O)NC3CCCC3)CC2)c1Cc1ccccc1 in BJeLR viability: -4.9
# Entry of CC1Cc2ccccc2N1CC(=O)Nc1cccc(S(N)(=O)=O)c1 (configuration not stated) in Mtb hypoxia rep: 8.7
# Entry of Cn1nc(C(=O)N2CCOCC2)c2ccccc2c1=O in PrP 5UTR inh: -35.5
# Entry of COc1cc(/C=C/c2nc(N)nc(-c3ccccc3O)n2)cc(OC)c1OC in RN4220 kill: -0.2

# Back to the main list, starting three compounds before the break.
SMILES,Mtb hypoxia rep,Mtb hypoxia rep growth,Bead autofluor,Sa ugtP lethal,PrP 5UTR inh,BJeLR viability,RN4220 kill
COc1ccccc1OCC(=O)Nc1nnc(C2CCCC2)s1,5.4,3.4,5296,-8.5,-31.9,-11.4,-1.1
CCOC(=O)c1ccccc1OCc1cc(C=NNC(=O)c2ccncc2)ccc1OC,.,.,.,3.8,.,.,1.3
CCCS(=O)(=O)c1nc(S(=O)(=O)c2ccc(C)cc2)c(N2CC(C)OC(C)C2)s1 (configuration not stated),-3.8,9.9,2641,4.6,-1.7,-0.5,1.0
CC(Sc1nnc(Cc2ccc3c(c2)OCO3)o1)C(N)=O (configuration not stated),11.6,7.9,3459,2.7,-10.3,-0.6,1.7
CCc1ccc(NC(=O)C(C)Oc2nnc(-c3cccs3)c(-c3cccs3)n2)cc1 (configuration not stated),.,.,2760,2.8,-8.6,-1.0,-5.2
O=c1oc(-c2ccccc2[N+](=O)[O-])nc2ccccc12,14.7,6.1,2512,-3.5,-12.6,6.1,-12.0
O=C(NCc1cccs1)c1ccc(CS(=O)Cc2cccc(Cl)c2)o1 (configuration not stated),2.2,3.8,5780,4.5,-17.5,4.0,3.0
Cc1nonc1C(=O)N/N=C/c1ccncc1,.,.,2802,.,-87.7,4.4,.
CCOc1ccc(OCCCC(=O)N2CCN(S(=O)(=O)c3ccc(Cl)cc3)CC2)cc1,-4.0,7.9,3829,4.1,-7.1,-1.7,-0.4
CCN(C(=O)Cn1nc(C(=O)O)c2ccccc2c1=O)C1CCCCC1,-3.9,-1.8,3120,4.7,-13.4,-5.3,2.1
Cc1cc(C)n(C(=O)/C(C#N)=C/N(C)C)n1,.,.,1982,.,-3.6,-3.8,.
COC(=O)Cc1nc(Nc2ccccc2)sc1C,3.8,2.5,4563,5.2,.,-4.0,3.6
Cc1ccc(-n2ncc3c2ncn2nc(-c4ccco4)nc32)c(C)c1,-2.0,8.5,3335,1.4,-50.9,-4.3,14.9
CCOC(=O)c1cnc(-c2ccccc2)nc1C(F)(F)F,-9.7,10.3,5059,0.1,-54.8,-7.4,2.2
COc1ccc(C(C)(C)C)cc1NC(=O)c1ccoc1C,2.4,1.5,21536*,9.4,-61.8,-7.2,-2.6
Cn1c(=O)c2c(ncn2CCC(=O)N/N=C/c2ccncc2)n(C)c1=O,.,.,3729,.,-8.6,19.2,.
COc1ccc(OC)c(Nc2nc3nonc3nc2N2CCCCC2)c1,-0.8,-4.4,7312,2.1,-6.7,5.4,2.6
COCCN(C(=O)C1CCC1)c1nnc(-c2cccnc2)s1,.,.,2395,5.7,-2.8,0.3,0.5
COc1cc(OC)c(C(=O)OCC(=O)Nc2ccc(N3CCOCC3)cc2)cc1OC,2.5,2.9,3650,2.4,-14.7,.,1.9
N#C/C(=C\c1ccc([N+](=O)[O-])cc1)C(=O)NCCCn1ccnc1,15.2,8.3,4093,-0.7,-13.0,-4.5,1.9
CCc1cc(C(=O)Cc2ccc(F)cc2)c(O)cc1O,11.7,6.5,2428,-12.7,-7.9,-0.3,7.4
COC(=O)COc1cccc2c(=O)n(CC(=O)NCCc3ccc(OC)c(OC)c3)ccc12,5.3,7.1,5939,-5.4,-17.0,-1.5,-6.1
CCc1ccc(CN2CCC(n3nccc3NC(=O)c3ccc4c(c3)OCO4)CC2)cc1,-4.6,-5.8,4532,-4.9,-25.3,8.2,-3.8
COc1ccc(NC(=O)CSc2nnnn2C2CCCC2)c(OC)c1,-7.1,-7.0,3176,4.3,-19.9,-23.0,-3.4
O=C(CSc1nnc(CNC(=O)c2ccccc2)o1)NCCc1ccccc1,19.8,11.2,5230,9.9,-19.3,1.7,-0.7
COc1ccc(-c2nnc(SC)n2C)cc1,2.0,14.5,12673,-4.1,.,2.2,-0.3
COc1ccccc1/C=C/C(=O)N1CCc2cc(OC)c(OC)cc2C1C (configuration not stated),-1.9,13.4,4547,1.0,-9.7,-6.7,1.8
COc1cc(C2NC(=O)NC(O)(C(F)(F)F)C2C(C)=O)cc(OC)c1OC (configuration not stated),4.0,4.2,2376,11.4,-27.7,6.2,-0.9

# Record cards (already shown). Order of values: Mtb hypoxia rep | Mtb hypoxia rep growth | Bead autofluor | Sa ugtP lethal | PrP 5UTR inh | BJeLR viability | RN4220 kill
# Results for Cc1cc(C)n(C(=O)/C(C#N)=C/N(C)C)n1 = . | . | 1982 | . | -3.6 | -3.8 | .
# Results for CCc1cc(C(=O)Cc2ccc(F)cc2)c(O)cc1O = 11.7 | 6.5 | 2428 | -12.7 | -7.9 | -0.3 | 7.4

# Next entries follow:
SMILES,Mtb hypoxia rep,Mtb hypoxia rep growth,Bead autofluor,Sa ugtP lethal,PrP 5UTR inh,BJeLR viability,RN4220 kill
Cc1ccc(N2CC(C(=O)Nc3ccccc3C(=O)NC3CCCCC3)CC2=O)cc1C (configuration not stated),-6.4,-5.5,22887*,-11.5,-8.2,-9.4,4.9
CC(=O)Nc1nnc(SCc2ccc(F)cc2)s1,6.8,7.0,7786,14.4,-37.8,-0.5,6.0
Cc1nn(CC(C#N)=NO)c(C)[n+]1N,1.5,2.2,.,-5.2,.,.,-1.8
CCOc1ccc(CCNC(=O)COC(=O)c2cccc(S(=O)(=O)N3CCOCC3)c2)cc1OCC,0.8,3.4,6362,10.6,4.0,7.8,4.0
COc1cc(OC)cc(-c2cc3nc(C)c(CCC(=O)NCc4ccccc4)c(C)n3n2)c1,-18.0,2.5,?,0.6,19.7,-5.7,-5.1
COc1ccc(CCNC(=O)C(=O)NCC2CCCN2S(=O)(=O)c2cc(C)ccc2C)cc1 (configuration not stated),4.3,2.0,7393,6.0,0.0,9.6,4.2
CCC(=O)NC1=C(C#N)C2(CCCC2)Cc2ccccc21,.,.,4453,3.0,-11.0,-2.1,3.6
COc1ccc(NC2=CC(c3ccc(OC)cc3)N(c3ccc(OC)cc3)C2=O)cc1 (configuration not stated),-7.4,-1.3,2356,3.7,-18.6,14.6,-0.9
Cc1ccccc1C(C)NC(=O)COC(=O)Cn1cc(C(F)(F)F)ccc1=O (configuration not stated),1.8,-5.5,2909,12.1,-21.2,.,5.2
COc1cc(/C=N/NC(=O)c2cccc3ccccc23)cc(OC)c1OC,.,.,3361,.,-18.5,-2.7,.

# 2 records drawn at random from the list so far:
SMILES,Mtb hypoxia rep,Mtb hypoxia rep growth,Bead autofluor,Sa ugtP lethal,PrP 5UTR inh,BJeLR viability,RN4220 kill
COc1cc(/C=N/NC(=O)c2cccc3ccccc23)cc(OC)c1OC,.,.,3361,.,-18.5,-2.7,.
COc1ccc(NC2=CC(c3ccc(OC)cc3)N(c3ccc(OC)cc3)C2=O)cc1 (configuration not stated),-7.4,-1.3,2356,3.7,-18.6,14.6,-0.9
